# Six1-Eya2 inh: blocks human Six1 binding to Eya2; Q15475+O00167; AlphaScreen GST-Six1/His-Eya2 binding, biochemical; active compounds read low; control for the full effect not named in the record; activity change, % (concentration not given with the values); 360,000 compounds, 0.56% hits; AID 651725; in the data active = activity change below about -65%; inconclusive = about -30% to -65%; inactive = above about -30%; further: on the % scale 0 is the no-effect control and ±100 the full control effect
#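 AlphaScreen with GST-Six1 and His-Eya2 (5X mix: 250 nM and 500 nM), glutathione donor and nickel acceptor beads; buffer 50 mM Tris pH 8.0, 300 mM NaCl, 1 mM TCEP; 1 h at 37 C in the dark.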
# D2 ag: activates the human D2 dopamine receptor; P14416; DiscoveRx PathHunter D2 beta-arrestin, luminescence, 90 min; 100% = 57 uM dopamine signal; activation, % (test concentration not listed); 360,000 compounds, 0.084% hits; in the data active = activation above about 40%; inconclusive = about 15% to 40%; inactive = below about 15%; further: compound concentration not given in the record; the text of the record calls up to 30% inactive
# Target sequence (P14416 whole entry, looked up): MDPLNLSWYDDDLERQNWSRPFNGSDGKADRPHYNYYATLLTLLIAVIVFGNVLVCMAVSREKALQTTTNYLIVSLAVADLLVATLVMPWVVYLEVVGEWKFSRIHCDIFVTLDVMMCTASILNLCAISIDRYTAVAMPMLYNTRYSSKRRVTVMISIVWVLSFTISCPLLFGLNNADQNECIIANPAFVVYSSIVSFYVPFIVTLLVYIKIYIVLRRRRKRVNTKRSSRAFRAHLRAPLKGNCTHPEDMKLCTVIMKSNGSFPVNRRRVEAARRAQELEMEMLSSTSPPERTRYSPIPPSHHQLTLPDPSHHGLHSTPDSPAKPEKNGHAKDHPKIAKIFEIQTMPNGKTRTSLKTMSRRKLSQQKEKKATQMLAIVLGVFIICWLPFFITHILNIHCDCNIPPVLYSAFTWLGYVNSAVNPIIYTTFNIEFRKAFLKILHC
#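 Agonist mode: compounds alone added to overnight-plated D2 PathHunter cells for 90 min at 37 C, with 57 uM final dopamine (EC100) defining full response. Beta-arrestin recruitment detected by chemiluminescent reagent, read after 1 h at ambient temperature.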
# gsp antagonist: antagonists of gsp mutant (McCune-Albright syndrome). gsp-mutant cells, cAMP HTRF, 30 min; control for the full effect not named in the record. Potency, µM (titrated, usually from 76.9 µM), for the others: top-dose activity change, negative = inhibition, usual class: inhibitors. 340,000 compounds, 0.4% hits; active = falling curve of any shape with a large fitted effect; inconclusive = falling curve, mostly with a smaller effect; inactive = flat or rising curve; cell line not stated here;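 further: intracellular cAMP measured with PDE inhibitor Ro 20-1724 present during compound exposure; potency means the concentration at half of the fitted maximal effect; on the % scale 0 is the no-effect control and ±100 the full control effect; nearly all actives have a fitted effect of over 65% in size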
#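 HTRF cAMP read-out (cAMP-d2 plus anti-cAMP antibody-K in lysis buffer, 30 min RT). Before lysis, cells are exposed to compounds with […] for 30 min at 37C in DPBS containing Ca/Mg, BSA and Tween 20.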
# D2 PAM: positive allosteric modulators of human D2 dopamine receptor. P14416. DiscoveRx D2 beta-arrestin cells, luminescence, 90 min; 100% = 57 uM dopamine signal. potentiation, % (test concentration not listed). 360,000 compounds, 0.23% hits; active = potentiation of 50% or more; inconclusive = 30% to 50%; inactive = 30% or less;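 further: compound concentration not given in the record; tested on top of an EC20 dose of dopamine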
#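 D2 cells co-treated with compound plus 50 nM dopamine (EC20) for 90 min at 37 deg C to detect potentiation. Beta-arrestin recruitment was read as enzyme-fragment luminescence after 1 h at ambient temperature. Full response was set by 57 uM dopamine.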
# CtBP-E1A inh: CtBP/E1A binding inhibition. AlphaScreen GST-E1A/His-CtBP binding, 1536-well; active compounds read low; control for the full effect not named in the record. activity change, % (concentration not given with the values). 340,000 compounds, 0.49% hits. AID 651724; in the data active means activity change below about -65%; inconclusive means about -30% to -65%; inactive means above about -30%; further: on the % scale 0 is the no-effect control and ±100 the full control effect
#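 Homogeneous bead-based format: GST-tagged E1A captured on glutathione donor beads, His-tagged CtBP on nickel acceptor beads; compounds precede bead addition by 2 h at 37 °C.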
# gsp ag: agonists of gsp mutant (McCune-Albright syndrome); AID 624287; Potency, µM (series often up to 76.9 µM), for inactives: top-dose activation (cAMP increase), most hits filed as activators; gsp mutant cells, cAMP HTRF, 30 min; control for the full effect not named in the record; 340,000 compounds, 0.13% hits; active = well fitted activation curve with a large enough effect; inconclusive = small, poorly fitted or top-dose-only effect, or another doubt; inactive = no such curve, though single readings can be large or run the other way; cell line not stated here;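 further: phosphodiesterase inhibitor Ro 20-1724 added with compounds to block cAMP breakdown; potency means the concentration at half of the fitted maximal effect; nearly all actives have a fitted effect of over 60% in size; about a fifth of the inactives were tested at one dose only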
#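 Cells stably selected in G418 were plated at 2000/well, grown 16-24 hr, then given compounds in DMSO with the PDE inhibitor […] (300 uM solution added) for 30 min at 37C; cAMP was read by HTRF.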
# * marks the source's active call; other numbers are inactive results; u = inconclusive; x = not tested or not shown; [ ] = dose if it differs, or a comment.
Six1-Eya2 inh,D2 ag,gsp antagonist,D2 PAM,CtBP-E1A inh,gsp ag,structure
4,-0.3,9%,1,-1,-27%,CCNC(=O)N1C(=O)C2(OCCO2)c2ccccc21
0,1.1,8%,-1,-4,u,CC(NC(=O)C(=O)N1CCOCC1)C(c1cccs1)N1CCN(c2ccc(F)cc2)CC1 (centres undefined)
-2,0.2,-25%,1,-3,-23%,CCCCOc1cccc(C(=O)N(Cc2cccs2)C2CCS(=O)(=O)C2)c1 (centres undefined)
-2,6.5,8%,-18,-29,-4%,Cc1noc(C)c1C(=O)N1CCCC(Nc2ccc(C(C)C)cc2)C1 (centres undefined)
20,1.6,-1%,-7,0,-8%[15.4 µM],COCCn1c(SCC(=O)Nc2ccc(C(C)=O)cc2)nnc1-c1ccco1
7,-2.0,x,-20,0,-1%,CC(C)c1ccc(S(=O)(=O)NCCCN2CCOCC2)cc1
-1,0.3,7%,-14,-26,-5%,Cc1ccc(/C=C/c2onc(C)c2S(=O)(=O)N2CCC(C(=O)N3CCN(C)CC3)CC2)cc1
1,-3.0,u,2,x,19%,Cc1ccc(OC/C(O)=C(\C#N)c2nc3ccccc3s2)cc1
-5,-0.1,-7%,-10,-8,-10%,COc1ccc(-n2c(COc3ccc(Cl)cc3)nnc2SCc2ccc(C#N)cc2)cc1
-5,-1.2,9%,-16,1,x,COc1ccc(C(CCN2CCOCC2)c2c(O)cc(OC)cc2OC)cc1 (centres undefined)
5,1.2,9%,-26,4,-28%,N#CC1(c2ccccc2)CCCN1C(=O)c1ccco1 (centres undefined)
-5,-8.3,-5%,-47,-11,-6%,Cc1occc1C(=O)NNC(=S)Nc1cccc([N+](=O)[O-])c1
-3,-3.7,u,1,1,u,C=CCn1c(=O)c2ccccc2n2c(SCC(=O)Nc3sc(C(=O)N(CC)CC)c(C)c3C(=O)OCC)nnc12
7,-2.9,4%,-19,14,-14%,Cc1c(-c2nnc(SCC(=O)O)n2-c2ccccc2Br)nnn1-c1ccccc1
5,0.4,0%,4,2,-45%[inhibitor],N/C(CC(=O)NCCOc1ccccc1)=N\O
4,1.5,12%,-7,9,7%,Cc1cccc(NC(=O)CCSc2nncn2C)c1
-4,0.3,6%,-11,-21,14%,Cc1ccc(-c2nc(CSCC(=O)NCCCN3CCOCC3)c(C)o2)cc1
0,-5.6,0%,-4,-2,-1%[15.4 µM],CN(C)Cc1c(C(=O)N/N=C/CCc2ccccc2)nnn1-c1nonc1N
-2,-1.0,1%,-6,5,7%,O=C(CN1C(=O)c2cccc3cccc1c23)NCc1cccnc1
2,-1.9,2%,-1,-2,-8%,CCN1CCN(c2ccc([N+](=O)[O-])cc2S(=O)(=O)N2CCOCC2)CC1
3,-1.1,-8%,-4,1,-3%,CCOC(=O)c1sc(NC(=O)c2sc(C)nc2C)nc1C
0,-0.7,-10%,-2,4,7%,CCOC(=O)CSc1nnc(-c2ccc(S(=O)(=O)NCc3cccs3)cc2)o1
-13,-2.3,-10%,-5,1,x,C[C@H](CO)N1C[C@H](C)[C@@H](CN(C)S(=O)(=O)c2cccs2)Oc2c(NC(=O)Cc3ccccc3)cccc2C1=O
-9,-3.7,-31%,1,x,-4%,O=C(Cn1c2ccccc2c(=O)c2cc([N+](=O)[O-])ccc21)Nc1ccccc1Cl
3,1.3,8%,-9,11,-36%[inhibitor],CCN1CCN(CCCNC(=O)CCC(=O)N2CCOc3ccc(Cl)cc32)CC1
-3,-3.9,5%,-13,-7,33%,c1ccc(CCc2nn3c(Cc4ccccc4)nnc3s2)cc1
10,1.3,12%,9,2,-38%[inhibitor],Cc1cccc(C(=O)NCC(=O)N2CCCC2)c1
-2,0.2,28µM*,4,-1,0%,O=C(CCc1ccc(S(=O)(=O)N2CCOCC2)cc1)Nc1nc(COc2ccccc2)cs1
4,-0.2,11%,1,0,24%,CCN1CCN(c2ccc(S(=O)(=O)N3CCCC3)cn2)CC1
6,-3.1,3%,-6,2,0%,COc1ccc(C(C)(C)C)cc1NC(=O)c1ccc[n+]([O-])c1
2,-3.1,5%,-16,6,24%,Cc1ccc(N2CCN(CC(O)COC3CCCCC3)CC2)cc1 (centres undefined)
-3,-4.6,9%,-8,8,16%,COc1cccc(C(=O)N=c2sc3c(C)ccc(OC)c3n2C)c1
-7,-5.8,-8%,-2,2,-1%[15.4 µM],COC(=O)C1=C(C)NC(=O)NC1c1ccc2ccccc2c1 (centres undefined)
9,-1.1,6%,-19,11,17%,CCCS(=O)(=O)N1CCCC(C(=O)NCCCN(Cc2ccccc2)C(C)C)C1 (centres undefined)
-15,3.2,u,-7,-3,6%,Cc1cc(N2CCOCC2)nc2ccc(NC(=O)CCC(=O)N3CCN(c4ccc(F)cc4)CC3)cc12
-10,-2.8,x,-5,5,2%,COc1ccc(N2CCN(C(=O)COC(=O)CC(NC(N)=O)c3ccc(Cl)cc3)CC2)cc1 (centres undefined)
-7,-0.4,6%,20,-4,29%,CCC1CCCCN1C(=O)c1ccc([N+](=O)[O-])o1 (centres undefined)
-2,-1.9,5%,-3,-13,0%,CCc1ccc(CN(C)C(=O)CCc2nnc(CCc3cccc(OC)c3)o2)nc1
3,-1.4,11%,-7,2,-10%,COC(=O)NCc1ccc2c(c1)OCO2
-1,-4.6,-1%,-7,x,8%,CCc1noc(C)c1C(=O)NNC(=O)c1ccc(N(CC)CC)cc1
1,-0.8,1%,-15,1,1%,Cc1c(C(=O)N2CCN(Cc3ccc4c(c3)OCO4)CC2)cccc1[N+](=O)[O-]
2,-1.0,1%,1,0,24%,Cc1ccc(-c2nnn(CCC(=O)NC(C)(C)C)n2)cc1
-2,-0.9,9%,0,-16,u,Cc1ccc(S(=O)(=O)N2CCN(C(=O)COC(=O)/C=C/c3ccc([N+](=O)[O-])cc3)CC2)c(C)c1
1,2.2,1%,-7,2,1%,COc1ccc(CN2CCN(S(=O)(=O)c3ccc(F)cc3)CC2)cc1OC
13,-1.0,11%,-12,7,x,C=CCN=C1N[C@@H](c2cccc(C(F)(F)F)c2)C(C(=O)OC)=C(C)N1CC
-1,1.5,-1%,0,7,3%,O=C(NCc1ccccn1)C(=O)NCc1ccccn1
-3,-3.6,-4%,-18,-6,4%,Cc1ccc(NC(=S)NNC(=O)C2CC2c2ccc(C)cc2)cc1 (centres undefined)
1,-2.2,-4%,-1,-1,-44%[inhibitor],O=C(c1ccc(-c2ccccc2)cc1)N1CCN(Cc2ccccn2)CC1

# Exported as tab-separated lines: entries from further up
structure	Six1-Eya2 inh	D2 ag	gsp antagonist	D2 PAM	CtBP-E1A inh	gsp ag
CCC1CCCCN1C(=O)c1ccc([N+](=O)[O-])o1 (centres undefined)	-7	-0.4	6%	20	-4	29%
CCc1ccc(CN(C)C(=O)CCc2nnc(CCc3cccc(OC)c3)o2)nc1	-2	-1.9	5%	-3	-13	0%
COC(=O)NCc1ccc2c(c1)OCO2	3	-1.4	11%	-7	2	-10%

# Next records follow:
Six1-Eya2 inh,D2 ag,gsp antagonist,D2 PAM,CtBP-E1A inh,gsp ag,structure
11,-4.3,0%,-3,x,18%,CC(NC(=O)COC(=O)C1CCN(c2ccc(C(F)(F)F)cn2)CC1)c1ccc(F)cc1 (centres undefined)
-8,-2.1,u,-12,-10,39%,COc1cccc(C(=O)Nc2ccc3c(c2)CCCN3C(=O)c2cccs2)c1OC
1,3.9,u,3,1,3%,Cc1sc2ncnc(N3CCN(S(=O)(=O)c4ccc(F)cc4)CC3)c2c1C
11,0.5,-1%,-9,9,x,Cc1ccc(CNC(=O)c2cc(-c3ccccc3)nn2Cc2cc(C)no2)cc1
3,-5.5,9%,-5,4,1%[15.4 µM],CCCCC(=O)NS(=O)(=O)c1ccc(NS(C)(=O)=O)cc1
7,4.6,3%,-10,x,-2%[15.4 µM],Cc1cccc(NC(=O)NCCc2ccc(Cl)cc2)c1
-10,9.3,-9%,-1,1,-19%,Nc1cc2c(cc1Br)-c1ccc(F)cc1C2O (centres undefined)
-7,0.9,-7%,-8,4,27%,COc1ccc(CNC(=O)C(c2ccc(C)o2)N(C(=O)c2snc(C(N)=O)c2N)c2ccccc2OC)cc1 (centres undefined)
4,-0.1,3%,-3,0,0%,O=C(Nc1ccccc1F)NC1CCN(Cc2nnnn2Cc2ccc(F)cc2)CC1
14,4.1,-10%,-12,10,-3%,CCn1c(COc2ccccc2)nnc1SCC(=O)C(C)(C)C
0,0.5,7%,-1,3,-28%,O=C(NCc1nnc(SCC(=O)N2CCCCC2)o1)c1c(F)cccc1Cl
-3,-1.8,u,5,2,-3%,COc1cc(NS(=O)(=O)c2ccc(NC(=O)COc3ccc(C)cc3C)cc2)nc(OC)n1
12,-1.5,x,-5,-18,-131%[inhibitor],COc1ccccc1/C=N/Nc1nc(C)cc(=O)[nH]1
-4,1.2,-16%,-6,-3,5%[15.4 µM],S=C(NCc1ccco1)Nc1ccc(Oc2ccc(Cl)cc2)cc1
-8,-7.5,16%,-16,2,21%[15.4 µM],CC1CCN(CCOc2ccc(C(=O)c3ccccc3)cc2)CC1
u,4.6,-2%,6,-3,3%[15.4 µM],O=C(Nc1cccc(S(=O)(=O)NC2=NCCC2)c1)c1cc(-c2ccco2)nc2ccccc12
2,-2.5,3%,-5,0,0%,CC(C)CCN(C(=O)CNC(=O)c1ccco1)C(C(=O)NC1CCCCC1)c1ccco1 (centres undefined)
-13,-1.2,-17%,-11,-10,12%[15.4 µM],CCN(C(=O)[C@@H]1CCCN1C(=O)c1cccs1)c1nc2cc(Cl)ccc2s1
4,-1.9,5%,-10,2,6%,Cc1sc2ncn(CC(=O)NCCCC(=O)N3CCN(c4ccccc4)CC3)c(=O)c2c1C
4,-0.3,9%,-1,2,x,Cc1ccc(NC(=O)c2ncn(CC(=O)NCc3ccccc3)n2)cc1C
-15,-3.4,-1%,-3,-13,26%,Cc1cccc(N2CCN(C(=O)c3cn(C)c(=O)c4c3c3ccccc3n4C)CC2)c1C
1,-2.9,7%,-6,-5,u,CCOC(=O)C(C)Oc1cccc2c(=O)n(CC(=O)NCc3ccc4c(c3)OCO4)ccc12 (centres undefined)
-12,-2.0,-17%,4,-10,x,COc1ccc(COc2cc(-c3cccc(OC)c3)nc3ccc(NC(=O)C(C)C)cc23)cc1
-14,-14,13%,-15,-11,-3%[15.4 µM],Cc1ccc(C(C[N+](=O)[O-])c2c(-c3ccccc3O)[nH][nH]c2=O)cc1 (centres undefined)
-1,-2.3,10%,2,-4,12%,COc1ccc(NC(=O)CCn2cccc2)cc1
4,0.2,-3%,-9,-19,14%,CCOC(=O)COc1ccc(C2NC(C(=O)O)CS2)cc1 (centres undefined)

# Quoted at random: 2 entries already listed
Six1-Eya2 inh,D2 ag,gsp antagonist,D2 PAM,CtBP-E1A inh,gsp ag,structure
4,-0.3,9%,-1,2,x,Cc1ccc(NC(=O)c2ncn(CC(=O)NCc3ccccc3)n2)cc1C
4,-1.9,5%,-10,2,6%,Cc1sc2ncn(CC(=O)NCCCC(=O)N3CCN(c4ccccc4)CC3)c(=O)c2c1C

# Screening results deposited in PubChem by National Center for Advancing Translational Sciences (NCATS).

# This is a random part of the collection; overall some 1.4% were active at least once.
